# Assay outcomes: PubChem, National Center for Advancing Translational Sciences (NCATS)
# miR-21 reporter = miR-21 reporter, rising signal; HeLa miR-21 FLuc reporter, luciferase, 48 h; Potency, µM (highest dose often 38.3 µM), for inactives: at the highest dose reporter change, positive = more light; AID 2288; 340,000 tested, under 10 active; active = well fitted rising curve with a large enough effect; inconclusive = small, poorly fitted or top-dose-only effect; inactive = no such curve, though single readings can be large or run the other way;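 note: % of control where 0% means no effect; miR-21 action dims this reporter so a rising signal means less miR-21 action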
#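 Compounds were titrated across several concentrations (up to approximately 40 uM) and incubated 48 hours with HeLa miR-21-FLuc reporter cells (miR-21 target sequence downstream of FLuc, endogenous miR-21). Readout was firefly luciferase luminescence after lytic detection reagent.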
# Rango release inh = prevents RanGTP from dissociating the Rango-importin beta complex | O95149+P62826 | Biochemical FRET Rango-importin beta, RanGTP-induced dissociation | Potency, µM (titrated, usually from 46.1 µM), for the others: at the top dose activity change, negative = inhibition | 340,000 tested, 0.071% active | AID 540253; active means falling FRET ratio curve, often poorly fitted, with flat reads before Ran was added; inconclusive means other falling curves, or compound fluorescence or quenching; inactive means flat or rising ratio curve;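 note: potency is the fitted concentration of half-maximal effect; % of control where 0% means no effect; nearly all actives have a fitted effect of over 45% in size; -100% = wells without RanGTP and RCC1; the record marks most hits as doubtful in a second field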
#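 Two FRET readings bracket the reaction: one 5 min after compound meets Rango–importin beta, another 45 min after RanGTP-RCC1 (0.6 uM Ran, 0.2 uM RCC1, 2 mM GTP) is added. Only the second defines inhibition.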
# GLA inh pH 4.5 = inhibitors of human alpha-galactosidase A at pH 4.5; activity change, negative = inhibition, % at 105 µM; 230,000 tested, under 10 active; AID 1467; P06280; purified enzyme, 4-MU-alpha-Gal fluorescence, pH 4.5; inconclusive = small, poorly fitted or top-dose-only inhibition, or a rising curve; inactive = flat fitted curve, though single readings scatter; no compound was filed as active;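 note: 0% = full activity with enzyme and -100% = basal without enzyme; dose as in the result columns while the protocol names 77 µM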
# Target sequence (P06280 whole entry, looked up): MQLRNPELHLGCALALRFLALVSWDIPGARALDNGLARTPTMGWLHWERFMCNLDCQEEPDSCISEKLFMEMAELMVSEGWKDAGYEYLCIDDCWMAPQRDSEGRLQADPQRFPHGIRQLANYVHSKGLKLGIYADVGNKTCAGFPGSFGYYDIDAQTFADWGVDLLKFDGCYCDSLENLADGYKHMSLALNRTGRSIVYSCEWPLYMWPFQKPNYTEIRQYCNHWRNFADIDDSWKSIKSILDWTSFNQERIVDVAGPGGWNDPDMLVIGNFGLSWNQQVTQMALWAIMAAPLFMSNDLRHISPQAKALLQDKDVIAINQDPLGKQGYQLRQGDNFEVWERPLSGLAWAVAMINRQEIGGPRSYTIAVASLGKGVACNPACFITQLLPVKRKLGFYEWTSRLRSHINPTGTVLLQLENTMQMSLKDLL
# Rango complex inh = inhibitors of Rango-importin beta complex formation; Rango CFP/YFP FRET sensor + importin beta, 45 min; AID 540263; 340,000 tested, 0.031% active; Potency, µM (highest dose often 92.2 µM), for the others: at the highest dose inhibition of complex formation; active = rising FRET ratio curve, often small or poorly fitted; inconclusive = mostly compound fluorescence or quenching in the first reads; inactive = flat curves in all reads;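 note: potency is the fitted concentration of half-maximal effect; 0% = DMSO wells and 100% = buffer wells lacking importin beta; nearly all actives have a fitted effect of over 15% in size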
#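 FRET biosensor (snurportin 1 IBB flanked by EYFP and cerulean), 50 nM, with compound 5 min, then 0.125 microM importin beta in PBS, 1 mM DTT, 0.02% Tween-20, 0.1% BSA. CFP/YFP ratio read after 45 min at room temperature; pre-read flags interference.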
# Numbers without * were called inactive; u = inconclusive; x = not tested or not shown. A portion of the library, so the mix of outcomes need not match the whole.
mol	Rango complex inh	Rango release inh	GLA inh pH 4.5	miR-21 reporter
O=C(O)c1ccccc1NC(=O)C1CCN(S(=O)(=O)c2cccc3nsnc23)CC1	-3.1%	-9.1%	x	2.8%
Cc1cccc(NC(=S)NNC(=O)COc2ccc(Cl)cc2Cl)c1	-1.7%	-13.3%	-11.4	-1.8%
COc1ccc(NC(=O)C2=C(C)Nc3nc(CCCO)nn3C2c2ccc(OC)c(OC)c2)cc1 (centres undefined)	-1.0%	-20.3%	-10.0	-3.3%
COC(=O)[C@H]1C[C@@H]1[C@H](NC(=O)[C@H]1C[C@@H]1[C@H](NC(=O)OCc1ccccc1)c1ccccc1)c1ccccc1	-1.2%	3.4%	-1.4	7.0%
CCCC(CCC(=O)Nc1ccc(C(=O)OCC)cc1)C(=O)O (centres undefined)	-1.9%	0.3%	2.2	-11.9%
CCCOc1cccc(C2C(C(=O)c3ccc(C)o3)=C(O)C(=O)N2c2nc(C)c(C(C)=O)s2)c1 (centres undefined)	u	u	x	-25.7%
O=C(COC(=O)c1ccccc1)c1ccc(Br)cc1	-1.3%	38.0%	1.2	-37.4%
CCn1c(CNC(=O)c2cccnc2)cc2ccccc21	-2.2%	-1.4%	x	2.1%
COc1ccc(C(=O)C2CCCN(C(=O)/C=C/c3cnc[nH]3)C2)c(C)c1 (centres undefined)	-2.1%	9.0%	x	-24.4%
C=CCn1c(SCC(=O)Nc2ccccc2OC)nc(O)c(CC)c1=O	-0.6%	0.2%	-10.5	4.3%
COc1ccccc1C(=O)Nc1ccc(S(=O)(=O)Nc2cc(C)on2)cc1	0.7%	-3.5%	3.2	-16.3%
S=C(NCC1CCCO1)Nc1cccc2ccccc12 (centres undefined)	2.0%	-2.2%	5.2	-7.1%
COc1ccc(NC(=O)c2sc(NC(=O)COc3ccccc3)nc2C)cc1	-2.3%	-13.4%	6.4	-18.8%
COc1ccc2cc(C=O)n(C)c2c1	0.0%	5.5%	x	x
Cc1ccc(C(=O)O/N=C(\N)c2ccccn2)cc1C	3.6%	3.0%	x	u
Cc1cc(C)c(C)c(S(=O)(=O)N2CCN(C(=O)C3CCC3)CC2)c1C	2.2%	0.2%	x	x
Cc1ccc(-n2nc3c(c2NC(=O)/C=C\c2ccc4c(c2)OCO4)CSC3)cc1	u	-13.4%	-5.0	-2.5%
COc1cc(-c2nc(-c3ccccn3)no2)cc(OC)c1OC	-0.1%	-10.2%	2.1	-34.0%
O=C(Nc1ncccn1)c1ccc([N+](=O)[O-])o1	u	-43.2%	25.5	1.8%
CCn1ncc(C2=NOC(C(=O)Nc3cc(OC)c(Cl)cc3OC)C2)c1C (centres undefined)	u	-1.6%	-0.3	-9.8%
CCOC(=O)C1CCCN(C2CC(=O)N(c3ccc(C)cc3)C2=O)C1 (centres undefined)	-2.2%	28.9%	0.9	-1.1%
COc1cc(NC(=O)c2cccs2)c(OC)cc1NC(=O)CCn1nnc2ccccc21	-4.9%	-12.2%	-10.6	0.3%
CCS(=O)(=O)Nc1cc2c3c(c1)CCC(=O)N3CCC2	-4.7%	1.7%	x	8.4%
CCn1cc(/C=C(\NC(=O)c2ccc(OC)c(OC)c2)C(=O)NCCCO)c2ccccc21	-2.1%	-3.4%	-16.7	-0.9%
COc1ccccc1N(Cc1ccccc1)S(=O)(=O)c1cccc(C(=O)Nc2ccccn2)c1	-2.6%	20.7%	x	4.7%
COc1cc(C(=O)NCc2ccncc2)cc(OC)c1OC	1.5%	4.7%	-0.3	4.6%
Cc1ccc(NC(=O)CN2CCOCC2)cc1Cl	1.4%	-8.6%	x	-14.7%
O=C(OCc1cnc(Cl)s1)c1ccccc1Cl	0.8%	23.9%	4.5	-7.2%
CC1CCN(C(=O)c2cccc(S(=O)(=O)N3CCN(c4ccccc4)CC3)c2)CC1	u	-1.5%	x	x
CCc1ccc(NC(=O)COC(=O)c2cccs2)cc1	2.1%	8.3%	x	-0.3%
CC(C)Sc1nc2c([nH]c3ccccc32)c(=O)n1C	1.7%	0.9%	-6.6	-4.3%
CC(C)(CC(=O)O)CC(=O)Nc1ccc(Cl)c(Cl)c1	4.0%	1.0%	-7.5	-10.5%
O=C(COC(=O)/C=C/c1cccc(C(F)(F)F)c1)NCc1ccco1	-1.8%	-0.1%	x	x
COc1ccccc1NC(=O)N1CCCC1C(=O)NCc1ccccc1 (centres undefined)	-0.4%	-5.2%	-11.2	-4.7%
O=C(NCCC1=CCCCC1)C1CCN(C(=O)Nc2ccccc2)CC1	-1.7%	-9.1%	7.1	-10.0%
CCOC(=O)C(=O)Nc1cc(C)on1	-2.9%	-6.5%	-3.6	-55.8%
COc1cccc(N2CCN(C3CCCC(C)C3)CC2)c1 (centres undefined)	-4.9%	-24.5%	-1.7	-17.9%
CSc1cccc(CNC(=O)C2CCC(=O)N(CC3CCCCC3)C2)c1 (centres undefined)	1.0%	1.6%	x	3.8%
Cc1ccc(CC2CC(=O)N(c3nc(C)cc(C)n3)C2=O)cc1 (centres undefined)	-1.7%	8.9%	-3.3	1.5%
CCCCCCCc1nc2sc3c(c2c(=O)n1N)CC(C)(C)OC3	-4.8%	-5.1%	1.1	-0.5%
COCC(=O)N(Cc1cc2cc(OC)ccc2[nH]c1=O)c1ccccc1	u	-22.9%	11.3	-7.9%
COc1ccc(CC2(CO)CCN(Cc3cnn(C)c3C)CC2)cc1	-0.8%	-0.5%	-0.6	-0.1%
Cc1c(C(=O)N2CCC(N3CCSCC3)CC2)oc2c(F)cccc12	2.1%	8.7%	x	-19.4%
O=C(O)Cn1nc(-c2ccccc2)cc1-c1ccccc1	-1.0%	-6.5%	x	-25.1%
O=C(Cc1ccc(Cl)cc1)c1c[nH]c(C(=O)NCCCN2CCOCC2)c1	0.3%	-12.9%	3.9	-0.4%
Cc1ccc(Cl)cc1N1CCN(C(=O)c2ccc(CN3CCOCC3)cc2)CC1	4.8%	8.2%	-3.6	19.7%
CCOC(=O)N1CCN(Cc2nc3cc(NC(=O)CC(C)C)ccc3n2CC)CC1	1.4%	17.9%	x	21.5%
CCCNC(=O)c1ccccc1N1CCN(CCCCN2C(=O)C3CCCCN3C2=O)CC1 (centres undefined)	1.3%	7.2%	x	-2.2%
COc1ccc(S(=O)(=O)NCCCn2ccnc2)cc1Cl	4.6%	-8.7%	x	-2.2%
OC[C@H]1O[C@@H](O[C@@H]2[C@@H](CO)O[C@@](O)(CO)[C@H]2O)[C@H](O)[C@@H](O)[C@H]1O	-4.0%	-4.8%	x	x
CC(C)c1ccc(CN(C)CC(O)c2ccccc2)cc1 (centres undefined)	-0.3%	-1.7%	3.3	0.4%
COc1ccc(C(C)NC(=O)C2CCCO2)cc1OC (centres undefined)	5.9%	-7.3%	5.2	-3.8%
O=C(Nn1c(-c2ccc(F)cc2)nc2ccccc2c1=O)c1cccnc1	0.1%	-9.3%	4.0	-3.8%
O=C(O)C1CCCN(S(=O)(=O)c2ccc(Br)cc2)C1 (centres undefined)	0.4%	-2.7%	1.3	0.2%
CCc1nnc(NC(=O)c2nn(-c3ccccc3)nc2C)s1	-0.2%	-7.3%	-1.2	-7.5%
COc1ccc(CC(=O)OCC(=O)N2CCCc3ccccc32)cc1	2.6%	-5.9%	x	x

# Going on with the list.
mol	Rango complex inh	Rango release inh	GLA inh pH 4.5	miR-21 reporter
O=c1c2oc3ccccc3c2ncn1Cc1cccc(Cl)c1	-0.1%	-11.1%	0.5	-7.6%
CC1CCCCC1Nc1nc2ccc(Cl)cc2n2cnnc12 (centres undefined)	-2.1%	-6.2%	x	-0.5%
O=C(CN1C(=O)COc2ccccc21)NCCCN1CCOCC1	-1.4%	8.8%	x	-0.7%
CCCCCOC(=O)Cn1c(=O)c2c(nc(N3CCOCC3)n2C)n(C)c1=O	-0.1%	9.2%	6.4	-0.3%
COc1ccc(NC(=O)Cn2c(=O)n(-c3ccccc3)c(=O)c3sccc32)c(OC)c1	-2.6%	1.6%	-1.5	-1.1%
CCOC(=O)c1c(C)n(C)c2cc(OCCN(CC)CC)ccc12	2.7%	0.0%	-5.8	-13.4%
OC(COc1c(Br)cc(Br)cc1Br)CN1CCOCC1 (centres undefined)	2.1%	2.0%	0.5	-5.2%
O=C(Cc1ccc(Cl)cc1Cl)Nc1ccncc1	-0.9%	-5.5%	x	22.9%
COc1cc(OC)c(NS(=O)(=O)c2ccc(Cl)c(C(=O)OC(C)C(=O)N3CCCC3)c2)cc1Cl (centres undefined)	2.6%	6.3%	-0.1	9.8%
COC(=O)c1ccc(N2CCN(C)CC2)c(NC(=O)c2cc3ccccc3o2)c1	-9.3%	-9.3%	4.3	-15.1%
CN(C)c1ccc(C(=O)/C=C/c2ccccc2)cc1	u	-14.8%	1.9	-74.4%
COc1ccc(Cn2cccc(NC(=O)Nc3cccc(OC)c3)c2=O)cc1	-0.2%	8.3%	-7.4	22.5%
COc1cccc(C2CC(c3cccs3)=NN2S(C)(=O)=O)c1OC (centres undefined)	0.0%	-14.5%	2.5	-9.5%
COC(=O)/C=C/C(=O)Nc1cccnc1	1.2%	41.2%	2.9	6.6%
CCC(=O)Nc1ccc(-c2nnc(-c3ccccc3)o2)cc1	4.6%	-0.9%	-17.8	-51.4%
O=C(CN(c1ccccc1F)S(=O)(=O)c1ccccc1)Nc1ccccc1C(=O)N1CCOCC1	0.3%	-4.8%	-0.4	5.5%
COc1ccc(OC)c(CN2CCC(C(=O)N(C)CCc3ccc(OC)c(OC)c3)CC2)c1	0.8%	-7.8%	-0.4	-0.8%
Cc1cc(C)c(NC(=O)CSc2nc3ccc(NC(=O)CSc4nnnn4Cc4ccccc4)cc3s2)c(C)c1	2.6%	-0.4%	x	x
N/C(=N\OC(=O)COc1ccc2ccccc2c1)c1cccnc1	-0.5%	1.1%	-17.9	-32.9%
COc1ccc(NC(=O)CCNS(=O)(=O)c2ccccc2F)cc1S(=O)(=O)N1CCOCC1	-1.4%	0.9%	x	x
O=C(NCc1ccccc1)C1CCCN(C(=O)Nc2ccccc2)C1 (centres undefined)	-1.8%	12.2%	-7.5	-6.8%
COc1cccc(C(=O)/C=C/Nc2ccc(S(=O)(=O)Nc3onc(C)c3C)cc2)c1	3.4%	-24.4%	-11.3	-66.0%
O=C(Nc1ccc(Br)cc1)c1ccc2ncsc2c1	-3.7%	13.8%	x	-66.2%
CCOc1ccc(OCC)c(NC(=O)CC2Oc3ccccc3NC2=O)c1 (centres undefined)	0.4%	1.3%	2.1	-16.0%
CCNC(=O)c1c(NC(=O)c2cc(-c3cc(C)cc(C)c3O)n[nH]2)sc2c1CCCC2	-2.8%	-6.6%	x	x
CCCN(CCC)CC(O)CN(c1ccccc1)S(=O)(=O)c1ccc(C)cc1 (centres undefined)	1.0%	-10.0%	-2.3	-3.0%
O=C(CN1CCCCC1)Nc1ccc(N2CCCCCC2)cc1	0.5%	11.2%	9.1	-19.3%
COc1ccc(C2CC(C(F)(F)F)n3nc(C(=O)Nc4c(C)n(C)n(-c5ccccc5)c4=O)c(Cl)c3N2)cc1 (centres undefined)	x	x	3.3	-6.6%
Cc1cc2c(C)nc(N/N=C/c3ccc([N+](=O)[O-])cc3)nc2o1	8.5%	-9.5%	0.9	-9.0%
C=CCn1c(Cc2ccc(OC(C)C)c(Cl)c2)nnc1SCC(N)=O	-0.2%	26.0%	1.8	-7.6%
COCCCNC(=O)c1cc2cc3cc(OC)ccc3nc2o1	-1.2%	8.0%	x	-16.0%
O=S(=O)(c1ccccc1)N1CCC(Oc2ccc(-n3cnnn3)cc2)CC1	-1.3%	-6.2%	x	12.1%
C=C(C(=O)Nc1ccccc1)c1ccc(C)cc1	u	-5.8%	x	x
Cc1ccccc1OCCCC(=O)NCc1ccco1	-1.4%	-3.8%	3.8	-4.7%
Cc1ccc(S(=O)(=O)Nc2nnc(C(C)(C)C)s2)cc1	-0.7%	-2.1%	x	-4.4%
